CtBP-E1A blk: inhibitors of CtBP/E1A interaction; AID 651724; 340,000 compounds, 0.49% hits; AlphaScreen GST-E1A/His-CtBP binding, 1536-well; stronger effect = lower value; control for the full effect not named in the record; activity change, % (test concentration not listed); in the data active means activity change below about -65%; inconclusive means about -30% to -65%; inactive means above about -30%; note: % is set by controls: 0 for no effect and ±100 for the full control effect
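Steps: dispense buffer (Tris pH 8.0, NaCl 300 mM, TCEP 1 mM, BSA, Tween 20); add 5X protein mix (GST-E1A, His-CtBP, 125 nM each); pin 23 nL compound; 2 h at 37 °C, dark; add 5X beads (50 ug/mL); 1 h; read.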
gsp antagonist: antagonizes gsp, the McCune-Albright syndrome mutation; gsp-mutant cells, cAMP HTRF, 30 min; control for the full effect not named in the record; Potency, µM (titrated, usually from 76.9 µM), inactives show at the top dose activity change, negative = inhibition, hits mostly inhibitors; 340,000 compounds, 0.4% hits; AID 624288; active = falling curve of any shape with a large fitted effect; inconclusive = falling curve, mostly with a smaller effect; inactive = flat or rising curve; cell line not stated here;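 note: intracellular cAMP measured with PDE inhibitor Ro 20-1724 present during compound exposure; potency is the fitted concentration of half-maximal effect; % is set by controls: 0 for no effect and ±100 for the full control effect; nearly all actives have a fitted effect of over 65% in size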
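Cells, 2000/well, grown 16–24 h in DMEM 10% FBS with 0.5 mg/ml G418, then compounds plus […] (300 uM addition stock), 30 min at 37C. cAMP read by HTRF (cAMP-d2 and anti-cAMP antibody-K in lysis buffer) after 30 min RT.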
gsp ag: activates gsp, the McCune-Albright syndrome mutation; gsp mutant cells, cAMP HTRF, 30 min; control for the full effect not named in the record; Potency, µM (top dose mostly 76.9 µM), for the others: at the top dose activation (cAMP increase), hits mostly activators; 340,000 compounds, 0.13% hits; active = well fitted activation curve with a large enough effect; inconclusive = small, poorly fitted or top-dose-only effect, or another doubt; inactive = no such curve, though single readings can be large or run the other way; cell line not stated here;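 note: phosphodiesterase inhibitor Ro 20-1724 added with compounds to block cAMP breakdown; potency is the fitted concentration of half-maximal effect; nearly all actives have a fitted effect of over 60% in size; about a fifth of the inactives were tested at one dose only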
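Cells in DMEM/10% FBS with G418 were pretreated with compounds in DMSO plus […] (300 uM stock) for 30 min at 37C. cAMP was measured by HTRF (cAMP-d2 plus anti-cAMP antibody-K) after 30 min at room temperature.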
D2 agonist: human D2 receptor agonism in beta-arrestin assay; DiscoveRx PathHunter D2 beta-arrestin, luminescence, 90 min; 100% = 57 uM dopamine signal; activation, % (test concentration not listed); 360,000 compounds, 0.084% hits; in the data active = activation above about 40%; inconclusive = about 15% to 40%; inactive = below about 15%; note: compound concentration not given in the record; the text of the record calls up to 30% inactive
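Agonist mode: compounds alone added to overnight-plated D2 PathHunter cells for 90 min at 37 C, with 57 uM final dopamine (EC100) defining full response. Beta-arrestin recruitment detected by chemiluminescent reagent, read after 1 h at ambient temperature.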
D2 PAM: positive allosteric modulators of human D2 dopamine receptor; AID 624464; potentiation, % (concentration not given with the values); 360,000 compounds, 0.23% hits; DiscoveRx D2 beta-arrestin cells, luminescence, 90 min; 100% = 57 uM dopamine signal; active = potentiation of 50% or more; inconclusive = 30% to 50%; inactive = 30% or less;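 note: tested on top of an EC20 dose of dopamine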
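D2 cells co-treated with compound plus 50 nM dopamine (EC20) for 90 min at 37 deg C to detect potentiation. Beta-arrestin recruitment was read as enzyme-fragment luminescence after 1 h at ambient temperature. Full response was set by 57 uM dopamine.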
Six1-Eya2 inh: inhibitors of human Six1/Eya2 interaction; Q15475+O00167; activity change, % (no concentration beside the values); AlphaScreen GST-Six1/His-Eya2 binding, biochemical; stronger effect = lower value; control for the full effect not named in the record; 360,000 compounds, 0.56% hits; AID 651725; in the data active = activity change below about -65%; inconclusive = about -30% to -65%; inactive = above about -30%; note: % is set by controls: 0 for no effect and ±100 for the full control effect
Target sequence (O00167 whole entry, looked up): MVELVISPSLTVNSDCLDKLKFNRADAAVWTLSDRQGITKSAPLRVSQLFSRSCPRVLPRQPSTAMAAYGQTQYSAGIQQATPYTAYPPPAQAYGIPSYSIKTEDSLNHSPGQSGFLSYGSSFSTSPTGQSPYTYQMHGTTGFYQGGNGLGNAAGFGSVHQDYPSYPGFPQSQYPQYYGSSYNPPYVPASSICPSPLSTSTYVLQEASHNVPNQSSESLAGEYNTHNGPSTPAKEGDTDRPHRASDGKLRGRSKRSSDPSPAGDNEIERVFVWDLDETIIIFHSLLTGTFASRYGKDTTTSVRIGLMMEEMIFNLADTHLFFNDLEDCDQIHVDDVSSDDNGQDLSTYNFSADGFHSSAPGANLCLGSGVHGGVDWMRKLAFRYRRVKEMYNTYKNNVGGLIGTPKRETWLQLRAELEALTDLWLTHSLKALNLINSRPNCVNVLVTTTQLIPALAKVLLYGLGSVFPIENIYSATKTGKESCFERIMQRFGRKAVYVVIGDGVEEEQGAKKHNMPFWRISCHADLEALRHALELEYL
Target sequence (Q15475 whole entry, looked up): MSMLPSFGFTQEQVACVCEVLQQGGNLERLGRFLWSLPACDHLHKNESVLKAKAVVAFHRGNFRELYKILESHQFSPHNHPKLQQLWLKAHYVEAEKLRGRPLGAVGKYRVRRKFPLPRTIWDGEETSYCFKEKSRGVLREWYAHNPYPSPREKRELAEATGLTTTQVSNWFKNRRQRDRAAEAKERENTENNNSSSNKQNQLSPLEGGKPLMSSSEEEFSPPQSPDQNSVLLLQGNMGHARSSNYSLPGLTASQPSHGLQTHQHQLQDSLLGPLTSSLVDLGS
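Six1/Eya2 binding was read as AlphaScreen signal after compounds were pinned into GST-Six1 plus His-tagged Eya2 (5X stock 250/500 nM) in pH 8.0 Tris/NaCl/TCEP buffer, beads added, then incubated 1 h, 37 C, dark.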
Active calls of the source: *; ? = inconclusive; / = no result given; [ ] = dose if it differs, or a comment.

SMILES	CtBP-E1A blk	gsp antagonist	gsp ag	D2 agonist	D2 PAM	Six1-Eya2 inh
COc1ccc(CCN2CC(C(=O)NCc3cccc(F)c3)CCC2=O)cc1 (stereo not given)	6	/	-41%[inhibitor]	-1.4	3	3
O=C(O)c1cc(S(=O)(=O)Nc2ccc3cn[nH]c3c2)ccc1O	-13	13%	-7%	4.6	1	-10
Cc1nc2c(C#N)cnn2c2c1CCN(Cc1ccccc1)N2C	-1	?	0%[15.4 µM]	-2.9	4	7
CC1=CC(C)(C)N(C(=O)CSc2nnc(N)s2)c2cc(C)c(C)cc21	-4	-11%	-40%[inhibitor]	-2.8	-16	-3
Cc1ccc(NC(=O)COC(=O)C2CCN(c3ccc(C(F)(F)F)cn3)CC2)cc1	6	2%	-53%[inhibitor]	-10	0	0
COC(=O)c1ccccc1NC(=O)Nc1cnccn1	2	10%	2%	-1.3	-30	2
Cc1ccc(C(c2ccc(C)c(C)c2)C(O)C2OC(=O)C(O)C2O)cc1C (stereo not given)	5	-5%	0%	-0.6	-17	1
COc1cccc(C(=O)Nc2cccc(NC(=O)c3cccs3)c2)c1	/	-15%	-15%	2.4	7	-1
Cc1nnc(NC(=O)C23CC4CC(CC(C4)C2)C3)s1	4	-7%	-5%	-3.8	1	2
O=C(CSc1ncn[nH]1)Nc1ccccc1Sc1ccc(Cl)cc1	5	-2%	-10%	3.2	-2	0
CCCCNC(=O)C1(C)CCN1Cc1cccc2c(OC)cc(C(=O)OCC)cc12 (stereo not given)	0	/	/	7.5	7	-8
CC(=O)Nc1ccc(S(=O)(=O)NCc2ccc(C)cc2)cc1	37	3%	-34%	-1.0	-2	24
COc1ccccc1-n1cc(C(=O)NCC(=O)N2CCN(c3ccccn3)CC2)c2ccccc2c1=O	/	-1%	6%	-3.6	-15	2
CCOC(=O)c1cnn2c(C)cc(-c3ccccc3)nc12	0	-10%	6%	-1.7	-10	-3
CC(=O)c1cn(Cc2ccccc2)c(=O)n(Cc2ccc(F)cc2)c1=O	7	4%	18%[15.4 µM]	-3.8	-9	1
CC(=O)Oc1ccc(-n2c(=O)c3ccccc3c3ccccc3c2=O)cc1	-5	-10%	?	-0.5	-11	-8
CCNc1nc(NCC)nc(N/N=C/c2ccc(O)c(O)c2)n1	-2	-12%	?	14	8	-7
Cc1cc(-n2c(C)cc(C(=O)CSc3ccc4c(c3)OCCO4)c2C)no1	-11	?	-6%	-1.8	15	-16
Cc1cnc(C(=O)OCC(=O)NC(C)CCc2ccccc2)cn1 (stereo not given)	1	0%	-5%	3.2	-1	6
CCOC(=O)c1cc(=O)[nH]c2ccccc12	-4	14%	6%[15.4 µM]	-1.2	0	4
COCCCC1CCN(C(=O)c2cc(COc3ccc(C)nc3)on2)CC1	2	-24%	-128%[inhibitor]	0.2	0	0
C=C(C)COc1ccc(-c2nc(N)nc(C)c2Oc2ccccc2OC)c(O)c1	-13	-7%	-33%[inhibitor]	0.9	?	-17
CC(C)CNC(=O)C1(C)CCCN1Cc1ccc(S(C)(=O)=O)cc1 (stereo not given)	7	/	/	-4.6	-4	7
COc1cc(O)c(CCC(=O)c2ccc(OC)c(OC)c2)c(OC)c1	-1	-3%	-7%	-3.7	-6	-4
CCOC(=O)C1(C)CCCCCN1C(=O)c1ccco1 (stereo not given)	6	/	/	-2.6	-3	7
FC(F)C(F)(F)c1cc(-c2ccccc2)n[nH]1	12	-8%	10%[15.4 µM]	1.6	0	5
COCCc1nc2ccc(C(=O)N3CCCCC3COC)cc2o1 (stereo not given)	2	-3%	-3%	1.0	2	3
CN(Cc1ccccc1)S(=O)(=O)c1ccc(Cl)nc1	3	8%	?	1.0	0	1
CCOc1ccc(CNC(=O)c2ccc(Sc3ccc(Cl)cc3)c(NC(C)=O)c2)cc1OC	3	-18%	-29%	0.7	-16	-7
COc1cc(N)c(Cl)cc1C(=O)OCC(=O)N(C)C1CCCCC1	0	4%	-130%[inhibitor]	-1.7	-1	0

Individual results from the list.
FC(F)C(F)(F)c1cc(-c2ccccc2)n[nH]1 in D2 agonist: 1.6
CCOC(=O)C1(C)CCCCCN1C(=O)c1ccco1 (stereo not given) in D2 PAM: -3

(listing goes on)
SMILES	CtBP-E1A blk	gsp antagonist	gsp ag	D2 agonist	D2 PAM	Six1-Eya2 inh
COc1ccc(CN(C)Cc2nc3cc(OC)c(OC)cc3c(=O)[nH]2)c(OC)c1	-2	6%	?	-2.3	-5	-5
Cc1ccc(C(=O)COC(=O)CNC(=O)c2ccco2)cc1	2	4%	8%	-3.9	-2	-2
O=C(NCc1cn(-c2ccccc2)nc1-c1ccccc1)c1cc([N+](=O)[O-])cc([N+](=O)[O-])c1	0	1%	5%	8.7	5	2
CC(=O)c1ccc(N2C(=O)C3C4C=CC(CC4)C3C2=O)cc1 (stereo not given)	8	5%	22%	-3.5	-10	7
Cn1c(SCC(=O)Nc2ccccc2)nnc1-c1ccc2nonc2c1	6	-1%	13%[15.4 µM]	3.0	-5	-4
CCCN=C1N(CC)C[C@@H]2[C@@H]3C(=O)N(C)C(=O)[C@@H]3[C@](C)(C(=O)OC)N12	30	14%	/	-1.1	3	31
Cc1cc(C)nc(NS(=O)(=O)c2ccc(NC(=O)c3cc(-c4ccccc4)nc4ccccc34)cc2)n1	5	?	1%[15.4 µM]	-6.1	-3	-12
O=C(NNC1=NC2(CCCC2)Cc2ccccc21)c1ccncc1	0	/	-25%[15.4 µM]	2.6	-7	-2
Cc1ccc(CNC(=O)C2CC(c3cccc([N+](=O)[O-])c3)=NO2)cc1 (stereo not given)	-15	14%	/	-4.3	-10	-9
NC(=O)C1CCN(C(=O)CN(c2cccc(C(F)(F)F)c2)S(=O)(=O)c2ccccc2)CC1	0	-8%	-31%[inhibitor]	0.6	4	17
COc1ccnc(Oc2ccc(F)cc2)c1C(=O)N/C=N/OCc1ccc(Cl)cc1Cl	-12	3%	25%	-4.2	18	-4
OCC1(CCc2ccccc2)CCCN(CCCc2ccccc2)C1 (stereo not given)	-4	10%	-39%[inhibitor]	4.8	-23	1
COC(=O)c1cc(NC(=O)c2ccccc2)c(=O)oc1C	3	-20%	-3%[15.4 µM]	-2.1	-3	-3
O=C(NCCCN1CCOCC1)c1ccc(NC(=O)C2COc3ccccc3O2)cc1 (stereo not given)	4	-1%	15%	2.5	-1	4
Cc1cc(C)nc(SCc2nnc(SCC(=O)Nc3c(C)cccc3C)o2)n1	3	7%	8%	-3.0	-8	11
COc1ccc(CC(N)c2csc(Nc3ccc(C(C)=O)cc3)n2)cc1 (stereo not given)	-12	/	/	7.8	-5	-25
CCc1ccc(OC(C)C(=O)Nc2ccc(S(=O)(=O)Nc3cc(C)on3)cc2)cc1 (stereo not given)	7	-15%	17%[15.4 µM]	-1.9	4	-1
Cc1ccc(SCC(=O)NCCc2ccc(F)cc2)cc1	/	-5%	-8%	-2.7	-7	2
CN(C(=O)c1cc2ccccc2cc1O)C1CCCCC1	-8	-10%	2%	-8.5	-36	-7
Cc1oc(S(=O)(=O)N2CCOCC2)cc1C(=O)Nc1ccc(Cl)cc1	2	0%	-6%[15.4 µM]	3.8	-5	4
Cc1sc(-c2ccncc2)nc1OC(=O)c1cc(Cl)cc(Cl)c1	0	3%	7%	-5.0	1	-13
COc1ccc(OCCSc2nc(C)c(Cc3ccccc3)c(=O)[nH]2)cc1	/	5%	-43%[inhibitor]	1.2	-2	-14
COc1ccccc1N1CCN(C(=O)CCNC(=O)Cn2ccc3ccccc3c2=O)CC1	0	-6%	9%[15.4 µM]	-3.0	-5	-10
CC(C)(C)c1ccc(OCC(=O)N(c2ccccn2)C2CCCCC2)cc1	-1	3%	13%[15.4 µM]	-6.1	-4	17
O=C(NC(=S)N1CCN(C/C=C/c2ccccc2)CC1)c1ccc(F)cc1	-5	0%	6%[15.4 µM]	-4.0	-16	-10
COC(=O)c1cc(NC(=O)N2c3ccccc3Sc3ccccc32)cc(C(=O)OC)c1	-20	-13%	0%	7.5	?	-14
CCOC(=O)c1c(NC(=O)CSc2nnc3ccccn23)sc2c1CCC2	/	-8%	-61%[inhibitor]	-6.6	-4	4
Cc1ccc(S(=O)(=O)N2CCN(C(=O)N3CCCCC3)CC2)c(C)c1	6	/	-18%	-1.3	-19	7
Cc1cc(C)c(S(=O)(=O)Nc2ncccc2C)c(C)c1	/	-10%	-14%	0.8	?	1
O=C(c1cc(-c2ccccn2)nc2ccc(Br)cc12)N1CCN(S(=O)(=O)c2ccccc2)CC1	-1	-30%	?	0.0	-5	3
Cc1ccc(NC(=O)CN(C)S(=O)(=O)c2ccc3c(c2)n(C)c(=O)c(=O)n3C)cc1	0	3%	14%	-0.8	-7	3
COC(=O)c1ccccc1NC(=O)c1ccc(NS(C)(=O)=O)cc1	1	-9%	1%	1.1	?	0
Cc1cccc(C)c1NC(=O)Cn1nc(-c2ccccc2)nc1-c1ccccc1	1	4%	-2%	-1.2	-8	4
COCCNc1nc(-c2ccccc2CO)c2sc(-c3ccccc3)cc2n1	7	/	/	-2.5	-2	1
O=C(CCC(NC(=O)OCc1ccccc1)C(=O)O)OCc1ccccc1 (stereo not given)	-2	6%	7%	0.3	8	-3
CC1(C)CC(NS(=O)(=O)c2ccc(Cl)cc2)CC(C)(C)N1	1	-5%	-4%[15.4 µM]	-3.3	-25	7
COc1cc([N+](=O)[O-])cc(/C=N/NC(=O)CSc2nnc(-c3ccccc3)n2C)c1O	-13	-6%	-1%[15.4 µM]	-0.7	0	-14
CCC(=O)N/N=C(\C)CC(=O)Nc1cc(Cl)ccc1C	5	1%	-3%	-1.8	-10	8
CCCCOC(=O)Nc1nc2ccc(OC)cc2s1	3	2%	-43%	0.8	-5	0
O=C(NC(C(=O)c1ccccc1)N1CCCCC1)c1ccccc1 (stereo not given)	8	1%	27%	0.4	-3	0
O=C(O)COc1ccc(Cl)cc1C1CCCCC1	3	-4%	10%[15.4 µM]	-2.4	-1	-6
CC1=C[C@H]2Cc3cc(C)cc(C)c3S(=O)(=O)[C@@H]2C=C1	-3	-9%	44%	-1.2	-16	-1
CN(c1ccccc1)S(=O)(=O)c1ccc(Cl)c(C(=O)OCC(N)=O)c1	2	-2%	12%	3.2	-5	-5
CCN1CCN(C(=O)CCCCCn2c(=O)[nH]c3cc(C(=O)OC)ccc3c2=O)CC1	-2	-4%	?	-0.9	3	-1
CCn1c(O)c(N=NC(=O)C2C(=O)NCC2c2ccccc2)c2ccccc21 (stereo not given)	-4	-11%	-1%	-3.3	-33	1
CC(C)OC(=O)CN1CCN(S(=O)(=O)c2cc(Cl)ccc2Cl)CC1	-3	-3%	-29%	-2.2	-1	6
O=C(NCc1ccccc1Cl)C1CCN(S(=O)(=O)N2CCC3(CC2)OCCO3)CC1	8	0%	-44%[inhibitor]	-1.6	-2	-1
Cc1csc(SCC(=O)Nc2nncs2)n1	-9	2%	7%	-4.3	-3	-1

Screening results (PubChem)
